TRPML1 agonist: agonists of human TRPML1 channel | activation, % (concentration not given with the values) | hit rate 0.12% among 410,000 | TRPML1-expressing cells, Ca2+ dye fluorescence, FDSS; host cell line not named in the record; reference of the full effect not given here; in the data active = activation above about 50%; inconclusive = about 30% to 50%; inactive = below about 30%; further: 0% is about no effect; the text of the record puts the active cut at 80%
Target sequence (Q9GZU1 whole entry, looked up): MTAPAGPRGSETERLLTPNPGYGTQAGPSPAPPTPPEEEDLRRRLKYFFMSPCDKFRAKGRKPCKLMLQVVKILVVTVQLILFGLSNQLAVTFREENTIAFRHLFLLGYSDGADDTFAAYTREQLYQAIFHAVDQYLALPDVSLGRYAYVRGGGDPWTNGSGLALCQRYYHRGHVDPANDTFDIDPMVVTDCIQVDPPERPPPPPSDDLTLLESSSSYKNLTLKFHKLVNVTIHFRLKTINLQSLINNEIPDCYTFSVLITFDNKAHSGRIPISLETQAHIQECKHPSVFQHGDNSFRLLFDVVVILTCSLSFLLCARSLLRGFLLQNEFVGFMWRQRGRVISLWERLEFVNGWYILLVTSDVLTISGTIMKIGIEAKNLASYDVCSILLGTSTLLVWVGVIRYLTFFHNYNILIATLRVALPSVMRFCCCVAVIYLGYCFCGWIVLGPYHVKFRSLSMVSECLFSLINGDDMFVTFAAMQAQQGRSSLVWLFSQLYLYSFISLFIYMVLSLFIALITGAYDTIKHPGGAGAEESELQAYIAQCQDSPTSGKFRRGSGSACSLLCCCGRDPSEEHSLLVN
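Agonist activity was taken from a 110 s kinetic Ca2+ dye read on the FDSS after pinning compounds onto TRPML1-DL cells. The cells were seeded at 1,500/well with Tet inducer, incubated about 16 h, then dye-loaded at room temperature.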
D2 PAM: positive allosteric modulators of human D2 dopamine receptor; P14416; DiscoveRx D2 beta-arrestin cells, luminescence, 90 min; 100% = 57 uM dopamine signal; potentiation, % (concentration not given with the values); hit rate 0.23% among 360,000; AID 624464; active = potentiation of 50% or more; inconclusive = 30% to 50%; inactive = 30% or less;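 further: compound concentration not given in the record; tested on top of an EC20 dose of dopamine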
Target sequence (P14416 whole entry, looked up): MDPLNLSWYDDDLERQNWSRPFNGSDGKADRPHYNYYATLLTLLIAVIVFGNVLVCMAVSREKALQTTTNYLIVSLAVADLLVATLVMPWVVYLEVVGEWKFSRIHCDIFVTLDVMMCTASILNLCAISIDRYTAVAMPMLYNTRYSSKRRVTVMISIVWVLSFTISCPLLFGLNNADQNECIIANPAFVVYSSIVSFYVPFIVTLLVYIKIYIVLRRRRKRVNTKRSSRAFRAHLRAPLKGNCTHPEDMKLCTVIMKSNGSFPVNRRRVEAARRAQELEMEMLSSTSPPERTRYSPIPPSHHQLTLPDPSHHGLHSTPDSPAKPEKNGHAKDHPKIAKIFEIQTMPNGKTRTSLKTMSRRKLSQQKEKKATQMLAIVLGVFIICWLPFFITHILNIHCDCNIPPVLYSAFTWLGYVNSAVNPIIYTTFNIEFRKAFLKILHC
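D2 cells co-treated with compound plus 50 nM dopamine (EC20) for 90 min at 37 deg C to detect potentiation. Beta-arrestin recruitment was read as enzyme-fragment luminescence after 1 h at ambient temperature. Full response was set by 57 uM dopamine.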
TRPML1 blocker: inhibitors of human TRPML1 channel | Q9GZU1 | TRPML1-inducible cells, Ca2+ dye fluorescence, FDSS; stronger effect = lower value; inhibition of EC80 agonist-evoked calcium signal | activity change, negative = inhibition, % (test concentration not listed) | hit rate 0.02% among 390,000; in the data active means activity change below about -50%; inconclusive means about -30% to -50%; inactive means above about -30%;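 further: stimulus is agonist 54-4 at its EC80 concentration; on the % scale 0 is the no-effect control and ±100 the full control effect; compound concentration not given in the record; the text of the record puts the active cut at -80%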
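TRPML1-DL cells, Tet-induced overnight (~16 h, 37 °C) at 1,500 cells/well, were loaded with Ca8 no-wash dye plus quencher for 45-90 min at room temperature. Compounds were pinned during FDSS kinetic reading; agonist 54-4 at EC80 (4 uM final) then added.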
Six1-Eya2 inh: Six1/Eya2 interaction inhibition; AlphaScreen GST-Six1/His-Eya2 binding, biochemical; stronger effect = lower value; control for the full effect not named in the record; hit rate 0.56% among 360,000; activity change, % (no concentration beside the values); Q15475+O00167; in the data active = activity change below about -65%; inconclusive = about -30% to -65%; inactive = above about -30%; further: on the % scale 0 is the no-effect control and ±100 the full control effect; compound concentration not given in the record
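Compounds are tested against tagged Six1 and Eya2 proteins bridged by glutathione donor and nickel acceptor beads; after a one-hour incubation at 37 °C without light, AlphaScreen emission is recorded.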
CtBP-E1A inh: blocks the CtBP interaction with E1A; AlphaScreen GST-E1A/His-CtBP binding, 1536-well; stronger effect = lower value; control for the full effect not named in the record; activity change, % (test concentration not listed); hit rate 0.49% among 340,000; AID 651724; in the data active means activity change below about -65%; inconclusive means about -30% to -65%; inactive means above about -30%; further: on the % scale 0 is the no-effect control and ±100 the full control effect; compound concentration not given in the record
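In 5 uL wells, 23 nL compound meets equimolar GST-E1A and His-CtBP (5X stock 125 nM each) for 2 h, 37 °C. Beads (5X, 50 ug/mL) then 1 h, 37 °C, dark.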
TRPV1 PAM: potentiators of human vanilloid receptor 1 (TRPV1); potentiation, % at 8.33 µM; TRPV1-expressing cells, Fluo-8 calcium influx, capsaicin EC20 potentiation; host cell line not named in the record; control for the full effect not named in the record; Q8NER1; hit rate 0.02% among 320,000; AID 540277; active means potentiation above 80%; inconclusive means 30% to 80%; inactive means below 30%; further: 0% is about no effect
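Cells expressing TRPV1 were dye-loaded with Fluo-8 and read kinetically: 10 s baseline, 3 min after compound (agonist portion), then 2 min after EC20 capsaicin (allosteric enhancer portion). Calcium-bound dye fluorescence at 480/520 nm.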
Starred values were filed as active, the others as inactive; u = inconclusive; x = no result given; & = joins results of further samples. Not a hit list; about 0.95% have a hit in one of these screens.

SMILES | TRPML1 agonist | D2 PAM | TRPML1 blocker | Six1-Eya2 inh | CtBP-E1A inh | TRPV1 PAM
Cc1ccc(-c2c3c(nc4sc(C(N)=O)c(N)c24)CCCC3)o1 | 2.8 | -5 | 15 | -25 | u | 1
CCOc1cc(/C=N/NS(=O)(=O)c2ccccc2)ccc1OS(=O)(=O)c1ccc(C)cc1 | 3.0 | -34 | 38 | -15 | -18 | 24
O=C(O)c1ccccc1SCc1cn2cc(Br)ccc2n1 | -0.1 | -2 | -3 | 5 | -5 | 12
CCCCOC(=O)C(C#N)c1nc2ccccc2nc1N1CCN(Cc2ccc3c(c2)OCO3)CC1 (configuration not stated) | 0.3 | -7 | -8 | 4 | -6 | -1
COc1ccc(C(=O)COC(=O)c2cccs2)cc1 | 0.3 | -1 | -5 | 12 | x | x
CC1Oc2ccccc2N(CC(=O)c2ccccc2)C1=O (configuration not stated) | 0.0 | -7 | -16 | 2 | 9 | 11
Cc1ccc(Nc2c(-c3cccnc3)nc3ccc(Br)cn23)cc1 | 0.4&2.2 | -14 | 0&-13 | 2 | x | -2
c1cnc(-c2noc(CN3CCN(C4C5CC6CC(C5)CC4C6)CC3)n2)cn1 (configuration not stated) | 0.2 | -4 | -1 | -3 | -19 | -1
COc1c(C)cc(Br)cc1C(=O)Nc1ccc(S(N)(=O)=O)cc1 | 0.4 | -4 | 9 | 3 | -2 | -14
COc1ccc(N2CCN(CC(=O)Nc3c(C)cc(C)cc3C)CC2)cc1 | 0.3 | -3 | -11 | 1 | -9 | 0
CC(=O)NS(=O)(=O)c1ccc(NC(=O)CSc2ccc(Cl)cc2)cc1 | 0.0 | -2 | -15 | 2 | -12 | 3
CCCC1=[N+](CC(=O)c2ccc(Br)cc2)CCn2cccc21 | 0.5 | -17 | 24 | -1 | 5 | 9
Cc1ccc(OCC(=O)Nc2cccc3c2CCCC3)cc1C | 3.4 | -11 | 7 | 11 | 2 | x
COc1cccc(C(=O)Nc2ccc(S(=O)(=O)Nc3cc(C)nc(C)n3)cc2)c1 | 0.0 | 0 | -5 | -7 | 2 | 2
COc1ccc(CCC(=O)Nc2nccs2)cc1OC | -0.9 | -11 | -2 | -16 | -19 | -5
CC(=O)N1CCN=C1SCc1ccc(Br)cc1 | -0.2 | -8 | 7 | 13 | -1 | 18
Clc1ccc(C2=CSC3=NCCN23)c(Cl)c1 | 0.9 | -7 | 4 | 3 | 7 | x
CC1(C)Oc2cc3oc(C(=O)O)cc(=O)c3cc2-c2ccccc21 | -0.3 | -8 | 2 | -1 | -14 | x
Cc1ccc(-c2cc3nc(-c4ccc(Br)cc4)cc(N)n3n2)cc1 | 0.1 | -18 | 7 | 26 | 18 | -6
CCCn1c(SCC(=O)Nc2ccc3c(c2)OCO3)nc2c1c(=O)n(C)c(=O)n2C | -0.5 | 3 | 0 | 1 | -8 | 27
Cc1cc(/C=C(\C#N)C(=O)O)c(C)n1CCC(C)C | -1.0 | -1 | -7 | -5 | -1 | 9
O=C(Nc1ccc(Cl)c(NC(=O)c2cccs2)c1)c1ccco1 | x | -12 | x | -8 | x | -9
Cc1ccc(S(=O)(=O)NC(=O)C2(C)CCN2C(=O)CCc2ccc(Cl)cc2Cl)cc1 (configuration not stated) | -0.7 | -2 | x | -4 | 2 | x
CCOC(=O)N1CCN(S(=O)(=O)c2ccc(C)c(C)c2C)CC1 | -0.4 | 1 | -17 | -22 | 9 | 4
COc1ccc(-c2ccc(CCC(=O)O)n2CC2CCCO2)cc1 (configuration not stated) | -1.0 | -1 | 1 | -6 | -4 | 10

Going on with the list:
SMILES | TRPML1 agonist | D2 PAM | TRPML1 blocker | Six1-Eya2 inh | CtBP-E1A inh | TRPV1 PAM
O=C(NCc1ccc(Cl)c(Cl)c1)c1ccc2c(c1)OCO2 | 1.0 | 1 | 1 | 4 | 2 | -5
COc1ccc(C(CNC(=O)C(C)Oc2ccc(Br)cc2)N2CCOCC2)cc1 (configuration not stated) | -1.1 | -29 | -7 | -1 | -3 | 19
CCCOc1ccc2c3c(c(=O)oc2c1)CCCC3 | u | 4 | 11 | 10 | 6 | -8
Cc1[nH]c2ccccc2c(=O)c1CN(C)Cc1ccccc1 | 0.2 | -36 | 9 | 1 | -3 | 13
Cc1nc2c(C#N)cnn2c2c1CCNN2C | 1.6 | 4 | -27 | 0 | -2 | 1
CN1N=C(c2ccc(F)c(F)c2)CSC1=NCc1ccccc1 | 0.2 | 5 | 32 | -1 | 3 | 11
COc1ccc(C)cc1NC(=O)C(OC(=O)CNC(=O)c1cc(C)cc(C)c1)c1ccccc1 (configuration not stated) | 3.3 | -11 | 5 | 2 | -1 | -9
O=C(c1ccccc1)[C@@H]1[C@@H]2C(=O)N(c3ccc(F)cc3)C(=O)[C@@H]2C2CCCN21 (some centres not stated) | 0.7 | -27 | 13 | -1 | x | 3
CCn1c(SCc2nc3ccccc3c(=O)[nH]2)nc2ccccc2c1=O | 1.2 | 1 | -1 | -17 | -13 | 8
CCN1CCN(CC(=O)Nc2cc3c(cc2C(C)=O)OCO3)CC1 | -0.6 | -3 | -2 | 9 | -4 | 0
CCN(C(=O)COC(=O)c1cnc(C)cn1)C1CCS(=O)(=O)C1 (configuration not stated) | 0.4 | -32 | 22 | 3 | 0 | -4
O=C1CS/C(=N\NC(=O)c2ccccc2)N1 | 0.5 | -6 | -14 | -7 | -9 | 7
NN1C(=O)c2cccc3c(C(=O)O)ccc(c23)C1=O | -0.2 | 12 | 13 | 2 | 5 | 6
O=C(c1ccc(CS(=O)(=O)c2ccc(Br)cc2)o1)N1CCOCC1 | -0.1 | -10 | -9 | -3 | 2 | -21
CCOC(=O)N1CCN(CC(O)COc2ccccc2C(C)CC)CC1 (configuration not stated) | 0.1 | -7 | 18 | 9 | 4 | 14
CCN(CC)S(=O)(=O)c1ccc(C(=O)Nc2ccc3c(c2)OCO3)cc1 | -0.2 | -22 | 3 | 19 | 17 | -12
Cc1ccc(S(=O)(=O)N2CCCC2CNC(=O)C(=O)NC2CC2)cc1 (configuration not stated) | 1.5 | 2 | -8 | 7 | -17 | -5
CC(=C1C(=O)c2ccccc2C1=O)N1CCc2ccccc2C1 | 0.4 | 24 | -3 | 2 | -6 | -4
Cc1cnc(NC(=O)COc2cccc3c2OC(C)(C)C3)s1 | 0.3 | -8 | -2 | 3 | -1 | 0
COc1ccc(C(=O)C[n+]2ccc3c(c2)nc(-c2ccc(OC)cc2OC)n3C)cc1 | -0.5 | -17 | 0 | 9 | -1 | -8
Cc1ccc2c(c1)N(Cc1ccncc1)C(=O)C(C)O2 (configuration not stated) | 0.2 | -3 | 14 | 5 | 19 | -3
c1coc(-c2cc3nc(NC4CCCCC4)ccn3n2)c1 | 1.0 | 1 | x | 9 | 7 | x
NS(=O)(=O)c1ccc(CNC(=O)/C=C/c2ccc(S(=O)(=O)N3CCOCC3)cc2)cc1 | 0.0 | -1 | 10 | -2 | 2 | -6
CCOC(=O)[C@H]1NN=C(C(=O)OC)[C@@H]1c1ccccc1 | 1.9 | -7 | -7 | 2 | 12 | 14
Cc1ccc(N(C)S(=O)(=O)c2cc(-c3cnc(C4CC4)o3)ccc2C)cc1 | 1.1 | -4 | 26 | -1 | 6 | -13

Reformatted: results already given
| SMILES | TRPML1 agonist | D2 PAM | TRPML1 blocker | Six1-Eya2 inh | CtBP-E1A inh | TRPV1 PAM |
| --- | --- | --- | --- | --- | --- | --- |
| CC(=C1C(=O)c2ccccc2C1=O)N1CCc2ccccc2C1 | 0.4 | 24 | -3 | 2 | -6 | -4 |
| Cc1cnc(NC(=O)COc2cccc3c2OC(C)(C)C3)s1 | 0.3 | -8 | -2 | 3 | -1 | 0 |
| COc1ccc(C(=O)C[n+]2ccc3c(c2)nc(-c2ccc(OC)cc2OC)n3C)cc1 | -0.5 | -17 | 0 | 9 | -1 | -8 |
| Cc1ccc2c(c1)N(Cc1ccncc1)C(=O)C(C)O2 (configuration not stated) | 0.2 | -3 | 14 | 5 | 19 | -3 |

Next section.
SMILES | TRPML1 agonist | D2 PAM | TRPML1 blocker | Six1-Eya2 inh | CtBP-E1A inh | TRPV1 PAM
O=C(CN1C(=O)NC2(CCCC2)C1=O)NCCc1ccccc1 | -0.2 | 2 | -6 | 1 | 9 | x
O=C(CSc1nnc(-c2ccco2)o1)N1c2ccccc2CCc2ccccc21 | 1.9 | 1 | -8 | -24 | 9 | 8
O=C(COC(=O)c1ccco1)NCC1CCCO1 (configuration not stated) | 0.4 | -6 | -10 | 5 | 6 | x
Cc1ccc(-n2ccnc(SCC(=O)NC3CCCCC3)c2=O)cc1F | 0.1 | 0 | -5 | -1 | -10 | -15
Cc1ccc(C)c(OCCC(=O)OCC(=O)c2ccc3c(c2)NC(=O)CO3)c1 | -0.4 | 19 | -6 | 0 | 5 | -17
Cc1noc(C)c1C(=O)OC(C)C(=O)Nc1ccc2c(c1)OCO2 (configuration not stated) | -1.0 | 6 | 35 | -1 | x | x
O=C(Nc1cc(=O)[nH]c2ncnn12)c1ccc(Cl)cc1Cl | 0.3 | -5 | -4 | 1 | -6 | 6
COc1ccc(OC)c(-c2csc(NC(=O)CN3C(=O)NC4(CCCC4)C3=O)n2)c1 | 1.7 | -66 | -8 | -5 | -15 | -3
CCOC(=O)C1CCN(Cc2ccc(N(C)C)cc2)CC1 | -0.5 | -7 | -8 | 0 | 1 | 2
O=C(Cc1csc(NC(=O)Nc2ccc(Cl)cc2)n1)NC1CCCC1 | 0.2 | 6 | 21 | -1 | -3 | 28
Cc1nnc(Sc2cc(C(=O)NCCCOC(C)C)c3ccccc3n2)s1 | 0.6 | 3 | -21 | 17 | 2 | 2
O=C(Cc1cc(=O)[nH]c(=O)[nH]1)NCc1ccccc1 | -0.3 | 3 | 8 | 14 | -18 | -9
CSc1cccc(NC(=O)CCCOc2cc(=O)n(C)c3ccccc23)c1 | 2.5 | -7 | 4 | u | -28 | x
CN(CCO)c1cc(N2CCCCC2)c2nonc2c1[N+](=O)[O-] | -0.6 | -12 | -15 | -10 | 4 | 21
COc1cccc(NC(=O)c2ccc(NS(=O)(=O)c3cccs3)cc2)c1 | 0.0 | -22 | 35 | -5 | 2 | 10
CCCN=C1N(C)C[C@@H]2[C@@H]3C(=O)N(Cc4ccccc4)C(=O)[C@@H]3[C@](Cc3ccccc3)(C(=O)OC)N12 | -0.7 | 1 | 0 | 22 | 0 | x
COc1cccc(OC)c1C(=O)Nc1ccccc1N1CCCC1 | -1.1 | 0 | 4 | -6 | -2 | 21
O=C(CN1CCN(Cc2ccccc2)CC1)N1CCN(c2ccccc2)CC1 | 3.0 | -11 | 30 | 7 | x | 10
O=C(Cc1cccc2ccccc12)N1CC[C@@]2(O)CCCC[C@H]2C1 | 0.0 | -4 | -6 | 1 | -7 | -5
COc1cc(C=O)c(Cl)cc1OCC(N)=O | -0.2 | -5 | -7 | 2 | 13 | -3
O=C(c1ccccc1)C(Cn1cncn1)C(Sc1ccccc1)c1ccccc1 (configuration not stated) | 1.9 | -4 | 2 | -1 | 5 | -19
CC(=O)c1cccc(NC(=O)C2CCN(S(=O)(=O)c3ccccc3)CC2)c1 | -0.8&0.5 | -11 | 4&10 | 6 | -6 | -17
COc1cccc2c1Oc1ncccc1N(C(=O)CCC(=O)NCc1cccc(C)c1)C2 | 0.3 | -5 | 13 | 3 | x | 3
CC(=O)Nc1ccc(NC(=O)c2nc(-c3ccccc3)oc2C)cc1 | -0.3 | 2 | 4 | 8 | 1 | -8
